miR-21 FLuc = raises the signal of a miR-21 reporter | HeLa miR-21 FLuc reporter, luciferase, 48 h | Potency, µM (series often up to 38.3 µM), inactives show at the highest dose reporter change, positive = more light | 340,000 tested, under 10 active; active = well fitted rising curve with a large enough effect; inconclusive = small, poorly fitted or top-dose-only effect; inactive = no such curve, though single readings can be large or run the other way;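 note: % of control where 0% means no effect; miR-21 action dims this reporter so a rising signal means less miR-21 action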
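Luminescence from a firefly luciferase reporter carrying a miR-21 binding site downstream, stably expressed under a CMV promoter in HeLa cells that make miR-21 endogenously, reports miRNA modulation after 48 h compound exposure up to approximately 40uM final.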
GLA inh pH 4.5 = inhibitors of human alpha-galactosidase A at pH 4.5. purified enzyme, 4-MU-alpha-Gal fluorescence, pH 4.5. 230,000 tested, under 10 active. activity change, negative = inhibition, % at 105 µM. AID 1467; inconclusive = small, poorly fitted or top-dose-only inhibition, or a rising curve; inactive = flat fitted curve, though single readings scatter; no compound was filed as active;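 note: 0% = full activity with enzyme and -100% = basal without enzyme; dose as in the result columns while the protocol names 77 µM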
Target sequence (P06280 whole entry, looked up): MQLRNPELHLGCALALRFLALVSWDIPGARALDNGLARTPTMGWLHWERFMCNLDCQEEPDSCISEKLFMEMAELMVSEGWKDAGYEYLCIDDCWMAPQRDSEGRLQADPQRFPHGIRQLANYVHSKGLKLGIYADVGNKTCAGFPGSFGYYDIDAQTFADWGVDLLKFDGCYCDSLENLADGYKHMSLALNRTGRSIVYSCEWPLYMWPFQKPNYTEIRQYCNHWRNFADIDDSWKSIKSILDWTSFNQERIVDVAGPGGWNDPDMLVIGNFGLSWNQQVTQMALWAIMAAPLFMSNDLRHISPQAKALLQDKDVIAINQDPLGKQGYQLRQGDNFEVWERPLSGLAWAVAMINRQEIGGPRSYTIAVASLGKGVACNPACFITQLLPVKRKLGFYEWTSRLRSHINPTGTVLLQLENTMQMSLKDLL
Rango release inh = inhibition of RanGTP-driven Rango-importin beta dissociation. AID 540253. O95149+P62826. 340,000 compounds, 0.071% hits. Potency, µM (titrated, usually from 46.1 µM), for inactives: at the top dose activity change, negative = inhibition. Biochemical FRET Rango-importin beta, RanGTP-induced dissociation; active means falling FRET ratio curve, often poorly fitted, with flat reads before Ran was added; inconclusive means other falling curves, or compound fluorescence or quenching; inactive means flat or rising ratio curve;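 note: potency is the fitted concentration of half-maximal effect; % of control where 0% means no effect; nearly all actives have a fitted effect of over 45% in size; -100% = wells without RanGTP and RCC1; the record marks most hits as doubtful in a second field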
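Rango/importin beta premix (0.1/0.25 uM final), PBS + 1 mM DTT + 0.02% Tween-20 + 0.1% BSA; cpd 5 min RT; FRET pre-read; + RanGTP-RCC1 (0.6 uM Ran, 2 mM GTP, 0.2 uM RCC1); 45 min RT; FRET post-read, ex 430, em 486/530 nm.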
Rango-impB inh = prevents formation of the Rango-importin beta complex; Q14974; Rango CFP/YFP FRET sensor + importin beta, 45 min; Potency, µM (titrated, usually from 92.2 µM), for inactives: at the highest dose inhibition of complex formation; 340,000 compounds, 0.031% hits; active = rising FRET ratio curve, often small or poorly fitted; inconclusive = mostly compound fluorescence or quenching in the first reads; inactive = flat curves in all reads;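 note: potency is the fitted concentration of half-maximal effect; 0% = DMSO wells and 100% = buffer wells lacking importin beta; nearly all actives have a fitted effect of over 15% in size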
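FRET biosensor Rango (snurportin 1 IBB between N-terminal EYFP and C-terminal Cerulean), 50 nM in PBS/1 mM DTT/0.02% Tween-20/0.1% BSA, preincubated 5 min RT with compound; 0.125 microM importin beta added, 45 min RT, CFP/YFP FRET ratio read.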
Active calls of the source: *; ? = inconclusive; nt = not tested or not shown. Not all compounds are listed; rates above refer to the full screens.

SMILES	miR-21 FLuc	GLA inh pH 4.5	Rango release inh	Rango-impB inh
CSCC(=O)N1CCC(n2nccc2NC(=O)CCc2ccccc2)CC1	1.3%	nt	-20.2%	-1.1%
COc1ccc(C(O)C(CC(=O)NCCCOC(C)C)C(=O)NCCCOC(C)C)cc1OC (centres undefined)	0.0%	5.3	14.6%	1.1%
COC(=O)Cc1n[nH]c(=O)c2ccccc12	-3.8%	4.9	-1.4%	-0.1%
COc1cc2c(C(=O)O)c(C)n(C)c2c2ccccc12	0.5%	nt	5.5%	-0.7%
O=C(CCN1C(=O)C2C3C=CC(C3)C2C1=O)Nc1ccc2ncccc2c1 (centres undefined)	-8.5%	4.6	11.5%	-0.6%
Cc1ccc(CN2C(=NC(=O)CCC(=O)O)SC3CS(=O)(=O)CC32)cc1 (centres undefined)	1.6%	2.2	5.3%	1.1%
O=c1c(Cc2c(F)cccc2Cl)c(O)ccn1CCc1ccccn1	4.5%	8.1	6.3%	2.8%
CCCNC(=O)Nc1ccc(C(F)(F)F)cc1	-37.3%	2.8	-3.7%	-0.4%
CN(C(=O)CCN1C(=O)/C(=C/c2ccccc2)SC1=S)C1CCS(=O)(=O)C1 (centres undefined)	-7.3%	nt	-1.2%	1.1%
Cc1cc(Nc2ccc(C(C)C)cc2)n2ncnc2n1	-13.6%	0.3	4.7%	-0.7%
CCCCn1cnc(C(=O)OCC)c1N	-12.1%	2.8	4.0%	-2.2%
COc1ccc(N(CC(=O)N/N=C/c2ccco2)S(=O)(=O)c2ccccc2)cc1	-9.7%	2.4	-4.4%	1.3%
CCC(Sc1nccn1C)C(=O)Nc1cccc2ccccc12 (centres undefined)	-5.3%	-3.7	13.8%	-3.0%
COC(=O)c1ccc(NC(=O)CSc2ccccn2)cc1	-29.5%	-3.0	11.0%	0.2%
S=C(NCCCCc1ccccc1)NCc1ccccc1	-2.6%	nt	-10.6%	-1.9%
COCCCNC(=S)NNC(=O)c1ccccn1	17.9%	1.6	-16.9%	-3.5%
Cn1c(N)c(C(=O)COC(=O)CCC2CCCC2)c(=O)n(C)c1=O	-2.9%	-9.8	8.6%	-0.9%
Cn1nc(C(F)(F)F)c(C(=O)Nc2ccc(F)cc2F)c1Sc1cccc(Cl)c1	0.0%	2.1	14.6%	2.4%
CCOc1ccc(NC(=S)N2CCN(S(=O)(=O)c3ccc(C)cc3)CC2)cc1	-0.4%	nt	-5.7%	-0.3%
CC(C)N1CCc2c(sc(NC(=O)c3ccc(S(=O)(=O)N4CCOCC4)cc3)c2C(N)=O)C1	-10.1%	-18.2	?	?
O=C(O)CCSSCCC(=O)O	nt	nt	4.2%	2.6%
CC(=O)c1ccc(NC(=S)NC(=O)Cc2ccc(Cl)cc2)cc1	0.7%	nt	14.0%	2.9%
CC1CN(S(=O)(=O)c2cccc(C(=O)Nc3ccccc3N3CCCCC3)c2)CC(C)O1 (centres undefined)	nt	nt	-4.1%	1.2%
CC(C)C[C@H](NC(=O)[C@H](Cc1ccccc1)n1c(=O)[nH]c2ccccc2c1=O)C(=O)N1CCC[C@@H]1C(=O)O	-2.0%	nt	11.2%	-4.7%
Cc1ccc(NC(=O)NNC(=O)c2cccs2)cc1	-33.5%	5.2	-7.5%	-1.9%

Remaining list, next part
SMILES	miR-21 FLuc	GLA inh pH 4.5	Rango release inh	Rango-impB inh
Cc1cc(C(=O)O)cc(S(=O)(=O)Nc2ccccc2C(=O)NC2CC2)c1C	nt	nt	4.4%	6.4%
COc1ccc(-c2csc(C3=C(O)CN(C(C)C)C3=N)n2)cc1OC	-44.4%	15.1	1.2%	-1.3%
CCOc1ccc(NC(=O)c2ccc(-n3cccn3)nc2)cc1	-0.3%	2.3	1.8%	3.5%
CC(Oc1ccc2oc3ccccc3c2c1)C(=O)NC12CC3CC(CC(C3)C1)C2 (centres undefined)	-5.8%	-3.1	0.2%	0.4%
CCN(CC)S(=O)(=O)N1CCC(C(=O)NC2CCCC2)CC1	0.4%	4.0	-5.0%	-3.8%
Cc1onc(-c2ccccc2)c1C(=O)N1CCCc2ccccc21	-5.4%	4.9	-1.6%	-0.5%
CN1CCN(NC(=O)c2cccc3ccccc23)CC1	-10.8%	-8.3	-6.6%	-2.4%
Cc1ccc(CNCc2cccnc2)s1	-1.9%	-9.6	0.7%	-3.3%
CCCOc1ccc(N2C(=O)CC(N(CCc3ccc(OC)c(OC)c3)C(=O)c3ccccc3)C2=O)cc1 (centres undefined)	-4.0%	-23.1	14.9%	-1.8%
CN1C(=O)C(C)(C)c2cc(S(=O)(=O)NCC3CCC(C(=O)NC4CCCCC4)CC3)ccc21 (centres undefined)	3.2%	nt	-16.7%	-2.6%
Cc1ccc(C(C(=O)NC(C)(C)C)N(Cc2cccs2)C(=O)c2csnn2)cc1 (centres undefined)	nt	nt	-2.7%	-6.0%
Cc1ccc(OCC(=O)Nc2ccc(C)c(F)c2)c([N+](=O)[O-])n1	nt	nt	-6.3%	-0.8%
O=C(CCNC(=O)C1CCN(S(=O)(=O)c2ccccc2)CC1)NCc1ccc(Cl)c(Cl)c1	20.2%	nt	-20.9%	5.3%
O=C(Nc1ccccc1F)Nc1ccc([N+](=O)[O-])cc1Cl	-27.3%	1.1	-0.1%	-0.1%
COc1ccc(CNC(=O)Nc2ccc(OC)cc2)cc1	-12.7%	-8.8	1.9%	0.8%
COCCNC(C(=O)Nc1ccc(C)cc1[N+](=O)[O-])c1ccccc1 (centres undefined)	-47.8%	-6.0	5.5%	-2.0%
COc1ccc(NC(=O)c2sc(-c3ccccc3)nc2C)c(OC)c1	3.2%	nt	?	?
CCCOc1ccccc1C1NC(=O)NC(C)=C1C(=O)OCc1ccccc1 (centres undefined)	0.4%	-3.8	-8.7%	-3.8%
NS(=O)(=O)c1ccc(NC(=O)c2cccc3ccccc23)cc1	6.0%	nt	-22.3%	-1.8%
CC(=O)c1c(C)[nH]c(C(=O)OCC(=O)Nc2cc(S(=O)(=O)N3CCCCC3)ccc2C)c1C	20.6%	8.6	-6.9%	-2.0%
COC1CCCN(C(=O)c2ccc(OC3CCN(S(=O)(=O)N(C)C)CC3)cc2)C1 (centres undefined)	0.3%	nt	5.8%	-1.4%
COCCNC(=O)c1ccccc1-c1ccccc1C(=O)O	-5.0%	-1.4	8.4%	-6.5%
Cc1ccc2nc(NC(=O)c3ccc(-c4nc5ccccc5s4)s3)sc2c1	-38.5%	4.3	-3.1%	-1.9%
O=C(NCc1ccccn1)c1cc(-c2ccc(Cl)cc2)oc1C(F)(F)F	-3.8%	-8.9	-13.3%	5.8%
Cc1nn(-c2ccccc2)c(C)c1/C=C/C(=O)OCC(=O)Nc1ncc(C(F)(F)F)cc1Cl	-8.8%	0.6	-6.7%	?

Next section
SMILES	miR-21 FLuc	GLA inh pH 4.5	Rango release inh	Rango-impB inh
CNc1nc(SC)nc2ccsc12	-10.2%	-10.2	16.5%	-0.2%
C=CCn1c(O)c(N=NC(=O)C(O)c2ccccc2)c2ccccc21 (centres undefined)	-4.4%	-6.0	-2.2%	-0.2%
CSc1nc(SCC(=O)NCC2CCCO2)c2c3c(sc2n1)CN(C)CC3 (centres undefined)	-2.9%	1.1	7.3%	-0.6%
O=C(NCCC(=O)N1CCc2ccccc21)c1ccccc1Cl	-7.5%	nt	7.8%	-3.8%
CSCCC(NC(=O)OC(C)(C)C)C(=O)NC(C(=O)NC(CC(C)C)C(N)=O)C(C)C (centres undefined)	0.9%	-1.1	-3.3%	0.1%
O=c1oc2ccccc2c(CNc2ccccc2)c1[N+](=O)[O-]	-3.0%	nt	6.6%	2.9%
Cc1cc(N2C(=O)C(=O)/C(=C(/O)c3ccc(Cl)cc3)C2c2cccc(Br)c2)no1 (centres undefined)	-2.5%	-5.5	2.9%	2.0%
CCc1noc(C)c1C(=O)N1CCCC(C(=O)c2cc(F)ccc2OC)C1 (centres undefined)	-1.7%	4.3	9.0%	3.0%
COCCNC(=O)CNC(=S)N(Cc1ccccc1)Cc1cccnc1	-9.1%	8.9	1.1%	0.6%
COc1ccc(NC(=O)Nc2ccc3[nH]ccc3c2)cc1	nt	nt	0.3%	1.0%
Cc1ccc(Cl)cc1N1CCN(Cc2nc3c(c(=O)[nH]c(=O)n3C)n2Cc2ccccc2F)CC1	-1.3%	-9.8	-4.6%	?
O=C(O)c1ccccc1NC(=O)C1C2C=CC(C2)C1C(=O)O (centres undefined)	1.6%	nt	5.7%	3.9%
O=[N+]([O-])c1ccccc1/C=N/n1c(-c2cccnc2)n[nH]c1=S	-6.1%	0.0	16.5%	5.5%
COc1ccc(/C(C)=N\Nc2nc(-c3ccccc3)cc(=O)[nH]2)cc1	-1.2%	14.4	14.0%	-0.2%
COc1cccc(/C=C2\CCCCC2=O)c1	-25.9%	nt	0.6%	0.0%
CCCn1c(SCC(=O)N(C2CCCCC2)C2CCS(=O)(=O)C2)n[nH]c1=O (centres undefined)	nt	nt	3.6%	-0.7%
COc1ccc(CNC(=O)Cn2nnc3ccccc3c2=O)cc1	-26.8%	2.1	8.9%	-1.1%
CCOc1ccccc1NC(=O)c1ccoc1C	-2.1%	-7.0	13.2%	1.3%
CCOc1ccc(OCC)c(NC(=O)C2COc3ccccc3O2)c1 (centres undefined)	-0.3%	-2.1	-4.9%	-0.3%
CCCN(CCC)C(=O)c1ccc2c(=O)n(Cc3ccco3)c(=S)[nH]c2c1	-0.7%	5.0	-6.4%	0.1%
Nc1nccc(-c2ccc(-n3cccc3)cc2)n1	-33.5%	-4.7	-20.6%	-3.3%
CSc1ccccc1NC(=O)CN(C)Cc1cccc(Cl)c1	3.6%	6.5	2.4%	1.6%
COc1ccc(S(=O)(=O)N2CCOCC2)cc1NC(=O)CC1CCCC1	nt	nt	-10.2%	-0.6%
Cc1nc2ccccc2c2oc(C(=O)N3CCN(C4CCCCC4)CC3)cc12	-7.5%	5.9	-13.1%	-0.2%
O=C(CN1CCN(C(=O)C2CCN(C(=O)/C=C/c3ccccc3)CC2)CC1)Nc1ccc(F)cc1	nt	nt	1.8%	1.2%

Some of the entries above in another layout:
SMILES,miR-21 FLuc,GLA inh pH 4.5,Rango release inh,Rango-impB inh
COc1cccc(/C=C2\CCCCC2=O)c1,-25.9%,nt,0.6%,0.0%
CCCn1c(SCC(=O)N(C2CCCCC2)C2CCS(=O)(=O)C2)n[nH]c1=O (centres undefined),nt,nt,3.6%,-0.7%

(further entries)
SMILES	miR-21 FLuc	GLA inh pH 4.5	Rango release inh	Rango-impB inh
COc1cccc2cc(C(C)N(CCCN3CCOCC3)C(=O)Nc3ccccc3)oc12 (centres undefined)	-9.1%	6.9	-16.2%	2.0%
CC1=CCC2C(=O)N(c3cccc(C(=O)NCc4ccccc4)c3)C(=O)C2C1 (centres undefined)	-4.1%	nt	2.8%	0.2%
Cc1ccc(OCC(O)CN2CCN(c3ccccn3)CC2)c(C)c1 (centres undefined)	-2.5%	-1.7	-4.6%	-1.8%
CCOC(=O)c1cn2nc(N3CCCC3)ccc2n1	16.8%	-0.4	19.0%	-0.3%
COc1ccc2c(c1)CCCC21NC(=O)N(CC(=O)NC(=O)NCc2ccccc2)C1=O (centres undefined)	4.9%	3.5	-20.1%	2.3%
CC(=O)c1c(C)[nH]c(C(=O)OCC(=O)NCc2cccs2)c1C	nt	nt	2.6%	-4.2%
CN(C)/C=C1\C=C(c2ccccc2)OC1=O	7.8%	-7.9	-3.4%	?
Cc1ccc(C(=O)COC(=O)CN2C(=O)C3C4CC(C(Br)C4Br)C3C2=O)cc1 (centres undefined)	-0.3%	nt	28.5%	0.6%
O=C(O)C1CCCN1C(=O)OCC1c2ccccc2-c2ccccc21 (centres undefined)	-12.3%	2.5	19.0%	-0.7%
CCNC(=S)NNC(=O)c1cc(-c2cccc(C)c2)nc2ccccc12	8.6%	-1.4	-5.1%	3.6%
Cc1ccc(S(=O)(=O)N[C@H](C(=O)N2CCC(C(=O)N3CCC[C@H]3C(=O)O)CC2)C(C)C)cc1	3.4%	5.7	-18.5%	4.0%
COc1ccccc1NC(=O)C(C)N1CCN(C/C=C/c2ccccc2)CC1 (centres undefined)	0.7%	-10.1	-8.7%	0.3%
CC(C)(C)S(=O)(=O)c1ccccc1C(=O)O	-4.9%	-18.0	1.4%	1.4%
Cc1nc(NCC2CCCO2)c2oc3ccccc3c2n1 (centres undefined)	-1.1%	-10.3	-5.7%	-0.1%
